Bioassay records: PubChem BioAssay, several laboratories
Mtb growth: M. tuberculosis H37Rv growth inhibitors, H37Rv strain (AID 1626) | one-dose inhibition, % at 10 µM; IC50 in µM for titrated hits | 0.95% of 220,000 active | M. tuberculosis H37Rv growth inhibition; higher % means a stronger effect;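 active means confirmed in a dose series; inconclusive means inhibition above 80% but not taken into the dose series; inactive means below 80% or under 30% at every dose of the series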;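 further: bacteria incubated seven days before Alamar blue readout; 0% = bacteria only wells and 100% = bacteria with antibiotic wells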
Arbovirus inh: antivirals against arbovirus infection. arbovirus infection cell-based antiviral screen. inhibition, % at 10 µM. 0.37% of 200,000 active;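 active means inhibition from about 30%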;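 further: bluetongue infection of BSR cells; cell survival read as ATP light after 72 h; 0% = infected wells without compound and 100% = uninfected wells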
Mtb betalactam: beta-lactam sensitization of Mtb H37Rv; M. tuberculosis H37Rv growth with meropenem, percent inhibition; hits of this screen are not shown here; inhibition, % at 25 µM; 0.27% of 330,000 active;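 active means about 74% or more and at least 40 points above the plate without the antibiotic, then above 30% in a dose series; inconclusive means first-round hits that could not be retested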;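 further: growth measured after seven days incubation then overnight dye step; 0% = bacteria only wells and 100% = bacteria with antibiotic; twin plates without the antibiotic show which effects depend on it; some results filed as inactive read as strong as hits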
YopH inh: YopH (Yersinia) phosphatase inhibition; 0.16% of 140,000 active; inhibition, %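 (about 10 µM by stock and volumes)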; fluorescence Ex485/Em525;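 active means inhibition of 50% or more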;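 further: controls were vehicle for no effect and minimum signal wells for full effect; inactives centre near -20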
RecA intein inh: inhibitors of M. tuberculosis RecA intein splicing | P9WHJ3 | cell-free RecA intein splicing, fluorescence | inhibition, %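 (about 9 µM by stock and volumes)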 | 0.75% of 290,000 active | AID 2221; in the data active means inhibition above about 30%; inconclusive means no clear call, values can overlap the other calls;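 further: 0% = vehicle wells and 100% = reference inhibitor control wells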
Target sequence (P9WHJ3 whole entry, looked up): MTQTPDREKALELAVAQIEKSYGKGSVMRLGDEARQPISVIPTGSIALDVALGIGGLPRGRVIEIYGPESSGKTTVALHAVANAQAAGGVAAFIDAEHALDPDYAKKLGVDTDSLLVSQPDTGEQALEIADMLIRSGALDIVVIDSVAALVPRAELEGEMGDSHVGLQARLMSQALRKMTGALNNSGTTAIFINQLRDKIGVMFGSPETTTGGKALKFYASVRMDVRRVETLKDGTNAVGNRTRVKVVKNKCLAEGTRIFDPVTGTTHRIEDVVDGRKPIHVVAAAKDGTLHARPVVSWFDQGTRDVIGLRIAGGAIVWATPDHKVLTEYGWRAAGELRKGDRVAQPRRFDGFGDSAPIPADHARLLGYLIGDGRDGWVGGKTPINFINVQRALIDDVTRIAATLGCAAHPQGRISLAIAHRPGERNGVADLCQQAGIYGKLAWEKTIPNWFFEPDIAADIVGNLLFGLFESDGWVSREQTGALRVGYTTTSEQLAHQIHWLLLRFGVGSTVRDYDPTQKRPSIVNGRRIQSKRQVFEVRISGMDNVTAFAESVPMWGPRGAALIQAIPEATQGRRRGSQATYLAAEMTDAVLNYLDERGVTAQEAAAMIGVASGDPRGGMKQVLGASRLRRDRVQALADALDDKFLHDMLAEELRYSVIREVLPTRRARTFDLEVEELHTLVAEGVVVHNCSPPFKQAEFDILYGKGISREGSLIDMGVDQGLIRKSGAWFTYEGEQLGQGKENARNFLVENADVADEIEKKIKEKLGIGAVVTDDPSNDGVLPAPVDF
Arbovirus inh repeat: further read-out of Arbovirus inh, marked with its call; inhibition, %; measured here: 10K subset replicate screen; many hits read low in the repeat;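 first of two repeat runs on a subset; 0% = infected and 100% = uninfected wells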
* = called active by the depositor; ? = inconclusive; . = no result given.

SMILES | Mtb growth | Arbovirus inh | Mtb betalactam | YopH inh | RecA intein inh | others
COCCn1c(-c2ccc(OC)cc2)cnc1SCC(=O)Nc1cc(C)on1 | -5.2% | -2.1 | -3.0 | -45.0 | -2.1
CN(C)c1ccc(NC(=O)Nc2cccc3ccccc23)cc1 | 0.4% | -9.4 | 2.2 | . | -2.4
COc1ccc(S(=O)(=O)c2nnn(-c3cccc(Cl)c3)c2N)cc1 | -7.7% | 6.4 | -0.8 | . | -1.1
CC(C)(C)CC(=O)Nc1ccc(-c2cn3cccnc3n2)cc1 | . | . | -2.5 | . | -4.2
CCOc1ccc(N(CC(=O)Nc2cc(C)cc(C)c2)S(C)(=O)=O)cc1 | . | . | -1.0 | . | 0.6
Cc1ccc(-c2nn3c(C)nnc3s2)cc1NC(=O)c1ccc(Br)o1 | -5.7% | -5.2 | ? | -24.7 | 0.8 | Arbovirus inh repeat=-4.8
Cc1nc2nc(COc3ccccc3)nn2c(C)c1Cl | -3.9% | -3.9 | -4.5 | -28.8 | .
COC(=O)c1nc2n(n1)C(c1ccc([N+](=O)[O-])cc1)C(C(=O)Nc1ccc(Cl)cc1)=C(C)N2 (configuration not stated) | 6.7% | -3.2 | -3.5 | -20.2 | -0.8
Cc1cccc(C)c1OCc1n[nH]c(=S)n1-c1ccccc1 | 8.5% | 3.2 | -10.1 | . | -2.1
Cn1cnc([N+](=O)[O-])c1Nc1cccc(O)c1 | -3.7% | 5.5 | -0.3 | -26.0 | -0.1
COc1cc(C)ccc1OCCCON1C(=O)CCC1=O | -4.4% | 6.0 | -6.5 | 3.2 | -1.0
COC(=O)c1cc2oc(C)cc2n1CC(=O)N1CCCc2ccccc21 | . | -6.3 | -2.0 | -43.5 | 6.6
Cc1[nH]c2ccc(C(=O)NC3CCC(C)CC3)cc2c1C (configuration not stated) | . | . | -8.3 | . | -10.5
Cc1cc(N2CC(C)OC(C)C2)nc2ccccc12 (configuration not stated) | 9.3% | -2.7 | -2.4 | . | 3.0
O=C(O)C1CCC(CN(Cc2cccc(Br)c2)C(=S)Nc2ccccc2F)CC1 (configuration not stated) | 8.6% | 20.0 | -2.5 | . | -6.7
O=C(/C=C/c1cccs1)c1cc(Br)ccc1OC(=O)N1CCOCC1 | 0.3% | -30.3 | 3.4 | -10.2 | 0.7
CCOC(=O)C1=C(Nc2ccccc2)CC(C)(O)C(C(=O)OCC)C1c1ccccc1 (configuration not stated) | -6.2% | 14.3 | -5.9 | -10.9 | 1.4
O=c1c(N=Nc2ccc(O)cc2)c(-c2ccccc2)[nH]n1-c1ccc([N+](=O)[O-])cc1 | 10.7% | -40.0 | . | . | 1.6
Cc1ccc([N+](=O)[O-])cc1S(=O)(=O)Nc1ccc(O)c(Sc2ncn[nH]2)c1 | . | . | -1.3 | . | -11.5
CC(=O)Oc1ccc(/C=C(\NC(=O)c2ccco2)C(=O)NCc2ccccc2)cc1 | . | . | -0.6 | . | 4.0
CCOC(=O)c1ccc(NC(=S)N2CCN(c3ccc(N4CCOCC4)nn3)CC2)cc1 | 4.5% | -3.4 | 9.0 | . | .
Cc1ccc(S(=O)(=O)N(C)CC(=O)N2CCCCCCC2)cc1 | . | . | -3.3 | . | -1.4
COc1ccc(-c2noc(COc3ccccc3OC)n2)cc1OC | 4.4% | -5.3 | -3.4 | -17.9 | 2.1
CCN1CCN(CCNC(=O)c2ccc(CS(=O)(=O)c3c(Cl)cccc3Cl)o2)CC1 | -3.3% | -1.4 | 0.0 | -27.8 | . | Arbovirus inh repeat=3.3
O=C(N/N=C/c1ccccc1F)c1cccc2ccccc12 | . | . | 1.2 | . | 1.8
Cn1cc(C(=O)c2ccccc2C(=O)O)cc1C(=O)C(Cl)(Cl)Cl | . | . | -4.9 | . | 2.8
O=C(Cc1csc(NC(=O)Nc2ccc(Cl)cc2)n1)NCc1cccnc1 | . | . | -8.5 | . | 0.6
O=C(O)c1ccc(C[n+]2c(-c3ccccc3)csc2Nc2ccccc2)cc1 | 0.5% | 13.4 | -7.0 | -22.0 | 1.5
CCn1c(SCC(=O)Nc2cc(C)nn2-c2ccccc2)nnc1-c1cccs1 | -0.6% | . | 6.5 | . | 1.1
O=C(OCc1ccc(COC(=O)c2ccccn2)cc1)c1ccccn1 | -2.1% | 3.1 | 4.6 | -19.8 | 1.0
COC(=O)C1C(c2ccccc2)C(C(=O)N2CCN(C)CC2)C1c1ccccc1 (configuration not stated) | -2.0% | 5.0 | 3.2 | -40.6 | 0.6
CCCCn1c(O)c(N=Nc2ccccn2)c2ccccc21 | 18.5% | 2.2 | 87.1 | -29.4 | 12.2
C=CCN1C(=O)C2C(C(=O)NC)C3(C)C=CC2(O3)C1C(=O)NCc1ccc(OC)cc1 (configuration not stated) | -1.4% | 15.7 | -9.3 | -40.7 | 2.4 | Arbovirus inh repeat=1.7
OCc1nc2ccccc2n1CCCOc1ccccc1 | -6.9% | 3.8 | -4.9 | -13.6 | 1.4
O=C(NNC(=O)C1COc2ccccc2O1)c1ccccc1 (configuration not stated) | -3.6% | 4.2 | -5.9 | -10.6 | 0.0
COc1cccc(NC(=O)CC2S/C(=N\S(=O)(=O)c3ccccc3)N(c3ccccc3)C2=O)c1 (configuration not stated) | 10.7% | 5.3 | 5.0 | 11.9 | 3.3
O=C(c1ccc(CN2CCc3ccccc3C2)cc1)N1CCN(c2ccccc2)CC1 | 4.5% | -25.4 | 2.0 | -32.0 | 0.7
COc1ccc(-c2cn3nc(SCC(=O)NC4CCCCC4)ccc3n2)cc1 | . | . | 1.5 | . | -9.2
OCCC1CN(Cc2nc3ccc(F)cc3[nH]2)CCN1C1CCCC1 (configuration not stated) | -0.2% | . | -0.8 | . | -0.9
COc1ccc(CNC(=O)C(c2ccco2)N(Cc2cccs2)C(=O)Cc2cccs2)cc1 (configuration not stated) | -2.7% | -1.3 | -6.1 | -11.8 | 0.4
CC1=NN(C(=O)COc2cc(C)ccc2C(C)C)C(O)(c2ccccc2)C1 (configuration not stated) | 2.7% | . | -5.4 | . | 3.3
Cc1ccc2nc3c(c(Nc4ccc5c(c4)OCCO5)c2c1)CCC3 | 59.8% | -19.7 | 56.2 | -23.8 | 6.9
COc1cccc(C2CC(=O)NC3=C2C(=O)CCC3)c1 (configuration not stated) | -5.6% | 8.0 | 0.1 | -50.2 | -0.9
Cc1ncc(CO)c(/C=N/Nc2ccc(C(F)(F)F)cn2)c1O | . | . | 1.5 | . | -0.1
COc1cccc(/C=N/NC(=O)c2ccc([N+](=O)[O-])cc2Cl)c1O | 4.9% | -19.8 | 71.0 | -32.9 | -4.1
O=C(NNC(=O)C1CC(c2cccs2)=NO1)NC1CCCCC1 (configuration not stated) | 5.2% | 9.8 | 2.7 | . | 3.2
COc1ccc(Nc2c3c(c(C#N)c4nc5ccccc5n24)CCC3)cc1 | -7.8% | -2.9 | -2.9 | -16.4 | -0.1
Cn1cccc1C(=O)OCC(=O)N1CC(=O)Nc2ccccc21 | -9.0% | 8.5 | -9.0 | . | 0.6

Molecules from the list above with bromine (3):
SMILES | Mtb growth | Arbovirus inh | Mtb betalactam | YopH inh | RecA intein inh | others
Cc1ccc(-c2nn3c(C)nnc3s2)cc1NC(=O)c1ccc(Br)o1 | -5.7% | -5.2 | ? | -24.7 | 0.8 | Arbovirus inh repeat=-4.8
O=C(O)C1CCC(CN(Cc2cccc(Br)c2)C(=S)Nc2ccccc2F)CC1 (configuration not stated) | 8.6% | 20.0 | -2.5 | . | -6.7
O=C(/C=C/c1cccs1)c1cc(Br)ccc1OC(=O)N1CCOCC1 | 0.3% | -30.3 | 3.4 | -10.2 | 0.7

5 compounds already listed, sorted by heavy-atom count, ascending:
SMILES | Mtb growth | Arbovirus inh | Mtb betalactam | YopH inh | RecA intein inh | others
COc1cccc(C2CC(=O)NC3=C2C(=O)CCC3)c1 (configuration not stated) | -5.6% | 8.0 | 0.1 | -50.2 | -0.9
Cn1cccc1C(=O)OCC(=O)N1CC(=O)Nc2ccccc21 | -9.0% | 8.5 | -9.0 | . | 0.6
COc1cccc(/C=N/NC(=O)c2ccc([N+](=O)[O-])cc2Cl)c1O | 4.9% | -19.8 | 71.0 | -32.9 | -4.1
CC1=NN(C(=O)COc2cc(C)ccc2C(C)C)C(O)(c2ccccc2)C1 (configuration not stated) | 2.7% | . | -5.4 | . | 3.3
COc1ccc(CNC(=O)C(c2ccco2)N(Cc2cccs2)C(=O)Cc2cccs2)cc1 (configuration not stated) | -2.7% | -1.3 | -6.1 | -11.8 | 0.4

Continued.
SMILES | Mtb growth | Arbovirus inh | Mtb betalactam | YopH inh | RecA intein inh | others
COc1ccc(S(=O)(=O)NCC(c2cccnc2)N2CCN(c3ccccc3OC)CC2)cc1C (configuration not stated) | 7.9% | 2.6 | . | -38.2 | .
N#CC1=C(N)C2=CCCC[C@H]2[C@H](c2ccc(Br)cc2)C1(C#N)C#N | 0.8% | -0.1 | 0.6 | -1.6 | .
COc1ccc(CCN2C(=O)CC(NC34CC5CC(CC(C5)C3)C4)C2=O)cc1OC (configuration not stated) | -3.5% | 3.1 | 1.1 | . | -2.0
COc1ccccc1Oc1cc(-n2nc(C)cc2C)ncn1 | 5.9% | 3.1 | 66.7 | -0.3 | 3.0
Nc1cc(OC(=O)c2ccco2)nn1S(=O)(=O)c1ccc(F)cc1 | -4.3% | 1.3 | 4.2 | -47.0 | 22.7
CSc1ccccc1NC(=O)N1CCCC(C(=O)c2ccc3c(c2)OCO3)C1 (configuration not stated) | 0.1% | 7.4 | -5.4 | . | 4.1
CC(C)(C)c1nnc(NS(=O)(=O)c2cc(Cl)ccc2Cl)s1 | . | . | -2.7 | . | 1.4
O=C1C2=C(SCCS2)C(=O)N1c1ccccc1 | 5.1% | -2.5 | 3.6 | -24.4 | 0.3
NS(=O)(=O)c1ccc(CCNC(=O)COc2ccc3c4c(c(=O)oc3c2)CCC4)cc1 | . | . | 2.6 | . | -3.7
CCS(=O)(=O)Nc1ccc(-c2nnc(SCC(=O)OC)o2)cc1 | 7.0% | 5.9 | 5.0 | -44.6 | 4.5
C=CCn1c(CCNC(=O)c2cccs2)nnc1SCC(=O)c1cccc([N+](=O)[O-])c1 | -7.9% | 5.7 | -6.7 | -20.0 | .
CCC1=Nc2cc(C(=O)NCCCOC)ccc2Sc2ccccc21 | -2.5% | -12.7 | -6.4 | -8.7 | 0.1
O=C(NC1CCCCC1)C1CCCN(S(=O)(=O)c2ccc(F)cc2)C1 (configuration not stated) | . | . | 3.3 | . | -1.9
Clc1nccnc1N/N=C/c1ccc(Br)cc1 | . | . | -2.1 | . | 4.4
C#Cc1ccc([C@@H]2C=C(C(=O)N3CCOCC3)O[C@H](OCc3ccc(CO)cc3)C2)cc1 | -0.4% | . | 5.8 | . | 2.0
NC(=O)COC(=O)C12CC3CC(CC(O)(C3)C1)C2 | 3.4% | -1.6 | -9.1 | . | .
O=C(CCNS(=O)(=O)c1cccc2nsnc12)NCc1ccc(F)cc1 | 0.6% | -0.1 | -0.2 | . | 2.2
CCn1nc(C(=O)OCC(=O)N2c3ccccc3CC2C)c2ccccc2c1=O (configuration not stated) | -7.1% | 2.5 | -1.4 | -42.7 | 4.1
CCCC(=O)Nc1nnc(S(=O)(=O)N(C)Cc2ccco2)s1 | . | . | 6.2 | . | -0.7
O=C(CC(=O)Nc1ccccc1)Nc1ccccc1 | . | . | -7.8 | . | -1.3
Cc1onc(-c2c(F)cccc2Cl)c1C(=O)NCc1ccccn1 | -8.3% | 6.8 | 0.7 | -31.0 | -1.7
Cc1cc(CN2C(=O)c3ccccc3C2=O)on1 | -5.2% | 9.4 | -12.2 | -1.7 | -0.2
COc1cc(NC(=O)C2CC(=O)NC3=C2C(=O)CCC3)cc(OC)c1 (configuration not stated) | -7.6% | -1.8 | -9.2 | 1.9 | 1.8
COc1ccccc1C1=NCc2nnc(C)n2-c2ccc(Cl)cc21 | -3.3% | -2.2 | 3.5 | -23.5 | -2.9
Cc1ccc(/C=C(\NC(=O)c2ccccc2)C(=O)NCCN2CCOCC2)o1 | . | . | ? | . | -1.7
Cc1ccc(/C=C2/NC(=O)N(Cc3ccccc3F)C2=O)s1 | -1.1% | 0.4 | -10.3 | . | -1.2
CC(=O)Nc1ccc(Cc2nc3ccccc3[nH]2)cc1 | -0.8% | -0.6 | 5.1 | . | 0.3
COc1cc2c(cc1OC)C(COc1ccccc1OC)N(C(C)=O)CC2 (configuration not stated) | . | . | 4.3 | . | -1.3
CCCCNC(=O)OCC(CC)NC(=O)OCC(C)C (configuration not stated) | -0.8% | 9.1 | -14.0 | -9.2 | 1.2
CCC/C(O)=C1\C(=O)CC(C)(C)CC1=Nc1ccc(OC)cc1OC | -1.2% | -17.3 | 3.1 | 3.1 | -0.9

A portion of the library, so the mix of outcomes need not match the whole.
